Screening results deposited in PubChem by ICCB-Longwood Screening Facility, Harvard Medical School.
Mtb MenB inh: M. tuberculosis MenB inhibitors, primary screen, biochemical, absorbance. 1,4-dihydroxy-2-naphthoyl-CoA synthase (Mycobacterium tuberculosis (strain ATCC 25618 / …. MenB enzyme assay, absorbance read-out; some hits fall short of the stated cut. inhibition, %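 (about 12 µg/mL by stock and volumes)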. actives 0.43% (n = 100,000);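 active = mean of two replicates above 30%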;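 also: 0% = no compound and 100% = wells with inactive enzyme; the first replicate is given; strong numbers were not always called active; inactives centre near -10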
PV pol inh: poliovirus RdRp elongation inhibitors, primary screen, biochemical, fluorescence polarization, total intensity; Genome polyprotein (Poliovirus type 1 (strain Mahoney)), P03300; poliovirus polymerase elongation; hits give low values; % elongation, % (compound at 16.7 µg/mL); actives 0.66% (n = 150,000); AID 588519, 2011; in the data active = % elongation below about 90%; also: some results filed as inactive read as strong as hits
Target sequence (P03300 1749-2209 limits assumed): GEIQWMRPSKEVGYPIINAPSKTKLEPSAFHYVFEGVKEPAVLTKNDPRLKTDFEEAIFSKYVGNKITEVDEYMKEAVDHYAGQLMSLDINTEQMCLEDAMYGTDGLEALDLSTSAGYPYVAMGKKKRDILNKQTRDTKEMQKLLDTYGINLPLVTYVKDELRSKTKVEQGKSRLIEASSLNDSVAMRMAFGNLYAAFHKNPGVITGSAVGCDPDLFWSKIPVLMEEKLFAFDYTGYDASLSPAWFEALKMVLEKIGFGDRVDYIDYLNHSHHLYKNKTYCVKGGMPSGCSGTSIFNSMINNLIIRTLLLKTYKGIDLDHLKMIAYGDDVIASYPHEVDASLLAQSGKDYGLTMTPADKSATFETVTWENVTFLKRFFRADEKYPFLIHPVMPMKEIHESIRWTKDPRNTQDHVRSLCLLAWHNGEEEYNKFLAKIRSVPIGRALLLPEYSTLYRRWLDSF
MbtI inh: MbtI salicylate synthase inhibitors, primary screen, biochemical, fluorescence intensity; inhibition, %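 (about 17 µg/mL by stock and volumes)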; purified MbtI enzyme, fluorescence intensity read-out; actives 0.89% (n = 100,000); P9WFX0;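 active = above 50% in both replicates, above 80% if mildly self-fluorescent; inactive = the rest, strongly fluorescent compounds included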;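 also: 0% = mean of negative and 100% = mean of positive controls; one replicate is shown; some compounds called inactive have numbers as strong as hits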
Target sequence (P9WFX0 whole entry, looked up): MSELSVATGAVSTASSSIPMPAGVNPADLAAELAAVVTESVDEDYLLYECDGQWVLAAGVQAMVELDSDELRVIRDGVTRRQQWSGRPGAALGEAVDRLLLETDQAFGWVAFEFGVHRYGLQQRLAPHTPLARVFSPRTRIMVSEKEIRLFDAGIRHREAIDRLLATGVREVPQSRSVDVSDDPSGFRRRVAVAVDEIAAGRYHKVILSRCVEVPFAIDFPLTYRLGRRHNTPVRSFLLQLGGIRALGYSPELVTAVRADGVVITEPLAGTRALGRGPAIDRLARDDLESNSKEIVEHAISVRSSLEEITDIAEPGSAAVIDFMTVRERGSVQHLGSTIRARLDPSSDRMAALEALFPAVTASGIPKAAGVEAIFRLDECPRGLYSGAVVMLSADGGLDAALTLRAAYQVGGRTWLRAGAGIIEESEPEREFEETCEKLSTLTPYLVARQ
PV pol inh intensity: further read-out of PV pol inh, marked with its call; % elongation; measured here: total intensity read-out; formula for this scale not given here;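 total fluorescence in place of polarization; lower means less elongation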
An asterisk follows results filed as active; . = no result given; & = joins results of further samples.

[1] NC(=O)c1nnn(Cc2ccc(Cl)cc2)c1N
[2] Cc1ccc(Cn2ccsc2=NC(=O)COC(=O)C2CC2)cc1
[3] CC(=O)Nc1cccc(-c2nc3ccccc3[nH]2)c1
[4] Cc1oc(-c2ccc(C(=O)O)cc2)nc1CSc1ccc(Cl)cc1
[5] c1ccc(CN2CCN(C3=Nc4cccc5cccc3c45)CC2)cc1
[6] NC(=O)c1ccsc1NC(=O)Cn1[nH]c(=O)c2ccccc2c1=O
[7] O=C(COC(=O)c1cnc(Cl)c(Cl)c1)c1ccccc1
[8] CC1(C)CC2CC(C)(CN2CC(=O)C(C#N)c2ccccc2)C1 (stereo not given)
[9] CC(=O)n1c(=O)n(C(C)=O)c2ccccc21
[10] NC(=O)CCSc1ccc(Cl)cc1
Screen / compound no.	1	2	3	4	5	6	7	8	9	10
PV pol inh intensity	104	110	113	103	164	107	107	108	119	121
PV pol inh	101	106	108	103	131	100	103	100	106	113
MbtI inh	1	-3	.	-10	7	0	-6	12	.	31
Mtb MenB inh	-8	-31	-20	-13	-110	-4	4	3	-5	-36

[11] COc1cccc(-c2ccc(=O)n(CC(=O)N3CCN(c4ccccc4)CC3)n2)c1
[12] COc1ccccc1/C=C1/C(=O)ON=C1C
[13] COc1ccc2cc3cc(C(=O)NCc4cccs4)sc3nc2c1
[14] O=C1/C(=C\c2cccs2)SC(=S)N1CCCC(=O)N1CCCc2ccccc21
[15] CCOC(=O)N1CCC(N2C(=O)c3ccccc3C2Nc2ccc(CC)cc2)CC1 (stereo not given)
[16] N#Cc1ccccc1OCC(=O)c1ccc2c(c1)OCCO2
[17] CC(NC(=O)CCc1cccs1)c1ccc(-n2ccnc2)cc1 (stereo not given)
[18] COc1ccc(Nc2cc(=O)oc3ccccc23)cc1
[19] Cc1ccc(Nc2nc(N)nc(CN3CCCCCC3)n2)c(C)c1
[20] CC(=O)Nc1cccc(Oc2ccc3c(c2)C(=O)N(c2ccc(Oc4ccc(C)c(C)c4)cc2)C3=O)c1
Screen / compound no.	11	12	13	14	15	16	17	18	19	20
PV pol inh intensity	.	104	104	103	100	100	100	99	98	106
PV pol inh	.	103	104	100	100	101	100	102	103	103
MbtI inh	12	9	-10	-4	-8	-12	9	73	-8	-1
Mtb MenB inh	-16	-13	-24	-19	-17	-67	2	-56	-32	0

[21] Cc1sc2ncnc(SC3CCOC3=O)c2c1C (stereo not given)
[22] O=S(=O)(c1cccs1)N1CCN(Cn2c(NCCO)nc3ccccc32)CC1
[23] Cc1ccc(Nc2ncnc3ccccc23)cc1
[24] CCSc1nnc2n(CC)c3ccccc3n12
[25] COc1cc(NC(N)=S)c(OC)cc1Cl
[26] O=C(N/N=C/C=C/c1cn(Cc2ccccc2)nn1)C1CC1
[27] CCn1c(C)nc2cc(OC)ccc21
[28] CCC(C)C12CN3CCN(CC(C)(C3)C1=O)C2 (stereo not given)
[29] CN1C(=O)C(C)(C)c2cc(S(=O)(=O)NCCc3ccco3)ccc21
[30] COc1ccc(-c2cc(C(=O)NNC3=NCCCCC3)c3c(C)noc3n2)c(F)c1
Screen / compound no.	21	22	23	24	25	26	27	28	29	30
PV pol inh intensity	102	110	98	105	110	112	102	100	101	100
PV pol inh	100	102	103	103	104	106	102	100	102	98
MbtI inh	15	-5	11	5	10	5	6	10	-8	-50
Mtb MenB inh	-30	-1	-38	-21	3	5	.	2	-24	3

[31] CC(=O)n1c(O)c(N=NC(=O)COc2ccc(Cl)cc2)c2ccccc21
[32] CCOC(=O)c1ccc(S(=O)(=O)N2CCN(/C=C/C(=O)c3ccccc3)CC2)cc1
[33] CN1CC(=O)NC1=NC(=O)C1CCCN(S(=O)(=O)c2ccc3c(c2)oc(=O)n3C)C1 (stereo not given)
[34] CCc1ccc(-c2csc(Nc3ncccn3)n2)cc1
[35] Cc1cc(NC(=O)COC(=O)Cc2ccsc2)no1
[36] NC[C@H](O)c1ccc(O)c(O)c1
[37] C=CCn1c(Cl)c(/C=N/NC(=O)c2cc(C)oc2C)s/c1=N\S(=O)(=O)c1cccs1
[38] COc1ccc(C(=O)c2coc3ccc(OC)cc3c2=O)cc1
[39] COC(=O)C1=C(N)N(c2ccc(F)cc2)C2=C(C(=O)CC(C)(C)C2)C1c1ccccc1 (stereo not given)
[40] Oc1ccccc1-c1nnc(SCc2ccccc2)o1
Screen / compound no.	31	32	33	34	35	36	37	38	39	40
PV pol inh intensity	103	107	105	102	97	102	204	107	105	102
PV pol inh	101	107	103	100	99	98	137	100	100	102
MbtI inh	-1	6	1	8	-7	-8	10	.	.	8
Mtb MenB inh	2	-32	6	29	-37	11	-34	-8	-10	-7

[41] CCC1CCCCN1C(=S)Nc1ccc(OC(F)F)cc1 (stereo not given)
[42] Oc1ccccc1C=Nc1ccc(N=Cc2ccccc2O)cc1
[43] CC(=O)Nc1c(C)ccc(NC(=O)C2C(C=C(C)C)C2(C)C)c1C (stereo not given)
[44] CC1CCC(NC(=O)Cn2ncc3c4ccccc4n(Cc4ccccc4)c3c2=O)CC1 (stereo not given)
[45] CS(=O)(=O)N1CCN(c2ncnc3c(-c4ccc(Cl)cc4)nsc23)CC1
[46] C=CCN(CC=C)C(=O)C1c2ccccc2Oc2ccccc21
[47] C/C(=C\C(=O)Nc1cscc1C)C(=O)O
[48] NNC(=O)c1ccc(-n2cnnn2)cc1
[49] COc1ccc2c3c(c(=O)oc2c1OCC(=O)C(C)(C)C)CCCC3
[50] O=C(CCN1CCN(C2c3ccccc3-c3ccccc32)CC1)Nc1ccccc1F
Screen / compound no.	41	42	43	44	45	46	47	48	49	50
PV pol inh intensity	101	159	.	106	103	106	96	103	99	104
PV pol inh	99	40	.	103	101	103	100	101	100	103
MbtI inh	4	3	-7	-4	3	.	0	8	9	-9
Mtb MenB inh	-33	.	-28	-32	16	1	7	-16	4	-21

[51] COc1ccc(OC)c(NC(=O)CCN2CCN(Cc3cccc4ccccc34)CC2)c1
[52] N#CC(C#N)=C(N)/C(C#N)=C/c1ccc2[nH]ccc2c1
[53] CC1(C)CC(NC(=O)NC2CCCCC2)CC(C)(C)N1
[54] C=CCn1c(SCC(=O)/C(C#N)=C(\c2ccc(F)cc2)N2CCOCC2)nnc1-c1ccccc1
[55] O=C(NCc1nc2ccccc2n1Cc1ccc(Cl)cc1)c1ccccc1
[56] Cn1c(SCc2ccc3c(c2)OCO3)nnc1-c1ccccc1
[57] CCOc1ccccc1NC(=O)c1cccc2c1C(=O)N(Cc1cccnc1)C2
[58] Cc1ccc2c(c1)cc(CN(C(=S)NCc1ccco1)C1CCCCC1)c1nnnn12
[59] O=C(NCCCN1CCCC1=O)c1ccc2c(c1)OCCO2
[60] C=C(C)Cc1c(C)nc(SCC(=O)c2ccc(Cl)cc2)nc1OC(=O)N(C)C
Screen / compound no.	51	52	53	54	55	56	57	58	59	60
PV pol inh intensity	102	104&104&103&110	98	102	106	99	97	99	102	107
PV pol inh	102	103&99&101&96	103	105	101	99	100	104	102	102
MbtI inh	-7	-9&-26	.	-4	-12	.	1	3	-22	-3
Mtb MenB inh	7	-9&-12	-2	-22	-16	1	-12	-55	-21	3

[61] Cc1nc2ccc(S(=O)(=O)NCC(=O)N3CCCC3)cc2s1
[62] O=C(Nc1ccncc1)c1cccc(COc2ccc3ccccc3c2)c1
[63] COc1ccccc1NC(=O)CSc1nnc2sc3ccccc3n12
[64] C/C(COc1ccccc1OCC(=O)O)=N\NC(=O)c1ccncc1
[65] CC(c1ccccc1)n1c(SCc2nc(-c3ccc(C(C)(C)C)cc3)no2)n[nH]c1=O (stereo not given)
[66] COC(=O)NC(Nc1cccc(C(F)(F)F)c1)C(=O)c1ccccc1 (stereo not given)
[67] O=C(Cn1ccc(C(F)(F)F)n1)N1N=CCC1(O)C(F)(F)F (stereo not given)
[68] Cc1ccc(CSc2nnc(N)s2)c(C)c1
[69] COc1ccccc1CNc1ccc(Br)cn1
[70] O=c1[nH]nc(SCc2nnc(-c3ccc(Cl)cc3)o2)n1C1CCCCC1
Screen / compound no.	61	62	63	64	65	66	67	68	69	70
PV pol inh intensity	104	102	102	101	100	107	113	97	102	107
PV pol inh	102	102	102	99	100	101	108	99	101	104
MbtI inh	17	-1	3	-5	3	.	9	.	-5	-3
Mtb MenB inh	-12	-23	-8	-24	-20	-1	-37	5	6	2

[71] CC(C)CCNC(=O)c1ccc2c(c1)N(Cc1ccccc1)CCS2
[72] O=C(NC(OCC1COC(C(F)(F)F)(C(F)(F)F)O1)(C(F)(F)F)C(F)(F)F)c1ccco1 (stereo not given)
[73] CC(=O)Nc1ncc(CN2CCOCC2)s1
[74] COc1cccc(CN2CCN(C(C)C)CC2)c1
[75] COc1cccc(C(=O)Nc2ccc(-c3cn4ccccc4n3)cc2)c1
[76] Cc1ccc(C(=O)c2ccccc2C(=O)OCC(N)=O)cc1
[77] Cc1ccc(-c2nn(C)c(=O)c3ccccc23)cc1CNS(C)(=O)=O
[78] O=C1CC(C(=O)O)S/C(=N\N=C2CCCC2)N1 (stereo not given)
[79] CC1CCCCC1NC(=O)/C(C#N)=C/c1cccc(O)c1 (stereo not given)
[80] Cc1oc(CC(C)C)cc1C(=O)O
Screen / compound no.	71	72	73	74	75	76	77	78	79	80
PV pol inh intensity	106	102	117	98	98	104	106	102	107	102
PV pol inh	102	101	115	91	106	102	102	102	109	103
MbtI inh	103	-2	.	.	65	-1	15	2	-7	0
Mtb MenB inh	-18	-4	-7	6	-70	.	12	-27	11	18

[81] CC(C)CN(C(=O)CN1CCN(c2ncccn2)CC1)C1CCS(=O)(=O)C1 (stereo not given)
[82] O=C1CCCc2nc(N3CCOCC3)sc21
[83] O=C(COC(=O)c1ccccc1-c1ccccc1)c1ccccc1
[84] CCOc1ccc2nc(N3CCCC(C(=O)Nc4ccc(C)cc4Cl)C3)sc2c1 (stereo not given)
[85] c1ccc(CCNc2cc(-c3ccccc3)nc3nncn23)cc1
[86] Cc1nc2ccccc2c(=O)n1-c1ccc(N)cc1
[87] CNC(=O)C1CCN(S(=O)(=O)c2c(C)noc2/C=C/c2ccc(OC)cc2)CC1
[88] CC(=O)Oc1ccc2occ(C(=O)c3ccc(Br)s3)c2c1
[89] CC(c1ccccc1)N1CC(C(=O)Nc2sccc2C#N)CC1=O (stereo not given)
[90] C=CCn1c(=S)sc2c(=O)n(CC(=O)Nc3ccc(F)cc3)cnc21
[91] CCSc1cnn(C2CCCCC2)c(=O)c1Cl
[92] CC(C)CN1Cc2cccc(C(=O)O)c2C1=O
[93] CCSc1nnc(NC2=NCCC2)s1
Screen / compound no.	81	82	83	84	85	86	87	88	89	90	91	92	93
PV pol inh intensity	110	103	114	99	103	100	102	104	134	110	105	99	106
PV pol inh	105	103	107	100	104	97	100	102	116	102	101	106	104
MbtI inh	-7	-9	.	-1	-22	17	14	.	-4	3	11	-12	13
Mtb MenB inh	3	1	-10	-16	-38	25	-6	-4	-10	-17	11	-13	7

Among those listed so far, these contain a cyano group.
[8] CC1(C)CC2CC(C)(CN2CC(=O)C(C#N)c2ccccc2)C1 (stereo not given)
[16] N#Cc1ccccc1OCC(=O)c1ccc2c(c1)OCCO2
[52] N#CC(C#N)=C(N)/C(C#N)=C/c1ccc2[nH]ccc2c1
[54] C=CCn1c(SCC(=O)/C(C#N)=C(\c2ccc(F)cc2)N2CCOCC2)nnc1-c1ccccc1
[79] CC1CCCCC1NC(=O)/C(C#N)=C/c1cccc(O)c1 (stereo not given)
[89] CC(c1ccccc1)N1CC(C(=O)Nc2sccc2C#N)CC1=O (stereo not given)
Screen / compound no.	8	16	52	54	79	89
PV pol inh intensity	108	100	104&104&103&110	102	107	134
PV pol inh	100	101	103&99&101&96	105	109	116
MbtI inh	12	-12	-9&-26	-4	-7	-4
Mtb MenB inh	3	-67	-9&-12	-22	11	-10
